Cruzain inh noDet = blocks cruzain activity in detergent-free assay; P25779; purified cruzain, Z-FR-AMC fluorescence, no detergent; Potency, µM, inactives show max response, negative = inhibition, actives largely listed as inhibitors; 200,000 tested, 2.3% active; AID 1476;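 also: plate controls were enzyme without inhibitor for no effect and buffer without enzyme for full effect; nearly all actives have a fitted effect of over 40% in size; top concentration of the series not given in the record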
Target sequence (P25779 123-467 limits assumed): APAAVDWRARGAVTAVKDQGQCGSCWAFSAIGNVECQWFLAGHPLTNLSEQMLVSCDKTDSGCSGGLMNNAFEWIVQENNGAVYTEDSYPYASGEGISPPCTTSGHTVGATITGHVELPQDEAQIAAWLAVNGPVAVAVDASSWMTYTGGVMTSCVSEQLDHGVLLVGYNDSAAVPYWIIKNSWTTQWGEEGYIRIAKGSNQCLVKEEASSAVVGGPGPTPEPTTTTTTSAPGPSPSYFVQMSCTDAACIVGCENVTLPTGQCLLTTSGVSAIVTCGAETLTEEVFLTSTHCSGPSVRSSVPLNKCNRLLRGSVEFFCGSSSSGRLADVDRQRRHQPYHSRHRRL
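Detergent-free condition (0.00005% Triton X-100) in acetate buffer pH 5.5 with DTT. 1.5 nM enzyme and compound were pre-mixed 15 min, then 2 uM Z-FR-AMC substrate added; reaction progress from fluorescence change between first and third reads (60 s).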
LASV entry inh = inhibitors of Lassa virus binding or cell entry | 300,000 tested, 1.2% active | AID 540256 | Lassa virus pseudotype entry inhibition, cell reporter; control for the full effect not named in the record | Potency, µM (doses to about 37.9 µM), without a hit: top-dose activity change, negative = inhibition, actives largely listed as inhibitors; active means well fitted inhibition curve with a large enough effect; inconclusive means small, poorly fitted or top-dose-only effect, or effect the other way; inactive means flat fitted curve, though single readings scatter; tested in HEK293 cells; also: % is scaled to controls: 0 for no effect and ±100 for the full control effect; nearly all actives have a fitted effect of over 50% in size; luciferase read-out
RE007 growth inh = less growth of the S. pombe RE007 Vpr strain | 360,000 tested, 0.21% active | Potency, µM (doses to about 92.2 µM), for the others: at the highest dose activity change, negative = less growth | S. pombe RE007 Vpr strain, BacTiter-Glo ATP luminescence, 24 h; control for the full effect not named in the record; active = well fitted falling curve with a large enough effect; inconclusive = small, poorly fitted or top-dose-only effect; inactive = no such curve, though single readings can be large or run the other way;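 also: % is scaled to controls: 0 for no effect and ±100 for the full control effect; nearly all actives have a fitted effect of over 50% in size; the assay follows cell death caused by Vpr and the record does not say whether a fall means rescue or toxicity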
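Fission yeast strain RE007, carrying one chromosomally integrated HIV-1 vpr copy, was seeded at OD 0.01 in PMG+AL medium with 23 nL pinned compound. After 24 h at 30 °C and 99% humidity, viability was read by BacTiter-Glo luminescence.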
Marburg entry inh = Marburg virus entry inhibition; Marburg virus pseudotyped entry inhibition, cell reporter; control for the full effect not named in the record; about a third of the inactives were read at about 46 µM; Potency, µM (highest dose often 37.8 µM), for the others: at the top dose activity change, negative = inhibition, actives largely listed as inhibitors; 300,000 tested, 1.8% active; active = well fitted inhibition curve with a large enough effect; inconclusive = small, poorly fitted or top-dose-only effect, or effect the other way; inactive = flat fitted curve, though single readings scatter; tested in HEK293 cells; about a fifth of its hits are not listed in these tables; also: % is scaled to controls: 0 for no effect and ±100 for the full control effect; luciferase read-out
NS1 inh = inhibitors of influenza NS1 protein function | 270,000 tested, 0.4% active | S. cerevisiae slowed by influenza A NS1, growth recovery by OD600 | AID 2326 | Potency, µM (doses to about 46.1 µM), for inactives: at the top dose activity, positive = more growth; active means well fitted rising curve with a large enough effect; inconclusive means small, poorly fitted or top-dose-only effect; inactive means no such curve, though single readings can be large or run the other way; also: nearly all actives have a fitted effect of over 50% in size
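Growth recovery, yeast-based: influenza A NS1 expressed in S. cerevisiae causes slow growth, and suppressors are detected by OD600. The parent strain without NS1 is used as positive control.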
Cruzain inh Det = blocks cruzain activity in presence of Triton detergent | P25779 | purified cruzain, Z-FR-AMC fluorescence, 0.01% Triton | Potency, µM, for the others: max response, negative = inhibition, hits mostly inhibitors | AID 1478 | 200,000 tested, 0.43% active;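 also: plate controls were neutral wells for no effect and buffer without enzyme for full effect; nearly all actives have a fitted effect of over 40% in size; top concentration of the series not given in the record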
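Purified cruzain (1.5 nM final) was preincubated with compounds for 15 min at room temperature in 100 mM sodium acetate pH 5.5, 5 mM DTT, 0.01% Triton X-100. Reaction started with 2 uM Z-FR-AMC; AMC fluorescence change over 60 s gave activity.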
StopGo reporter = FMDV 2A StopGo reporter, luciferase signal | human cells with a luciferase reporter of 2A StopGo recoding; control for the full effect not named in the record | Potency, µM (top dose mostly 57.9 µM), without a hit: at the highest dose signal change, negative = less light | 410,000 tested, 1.2% active | AID 1159524; active = well fitted falling curve with a large enough effect; inconclusive = small, poorly fitted or top-dose-only effect; inactive = no such curve, though single readings can be large or run the other way; tested in HEK293T cells; also: % is scaled to controls: 0 for no effect and ±100 for the full control effect; nearly all actives have a fitted effect of over 45% in size; luciferase light after 4 h
SARS PLP yeast = inhibitors of SARS-CoV papain-like protease in yeast; S. cerevisiae expressing SARS-CoV PLpro, growth rescue; control for the full effect not named in the record; Potency, µM (highest dose often 32.9 µM), for the others: top-dose activity, positive = growth rescue; 330,000 tested, 0.19% active; active means well fitted rising curve with a large enough effect; inconclusive means small, poorly fitted or top-dose-only effect; inactive means no such curve, though single readings can be large or run the other way; also: 0% is about no effect; nearly all actives have a fitted effect of over 55% in size; growth read by luminescence after 48 h
* hit, by the source's call; ? = inconclusive; nt = not tested or not shown; & = joins results of further samples; [ ] = another dose, or the depositor's remark. Unless noted, calls follow the shape of the dose curve; as a rule, active = well fitted curve in the direction sought with a large enough effect; inconclusive = small, poorly fitted or top-dose-only effect, or another doubt; inactive = no such curve, though single readings can be large; an effect the other way counts as inactive or inconclusive. Potency is read from the fitted curve at half-maximal effect.

SMILES	Cruzain inh noDet	LASV entry inh	RE007 growth inh	Marburg entry inh	NS1 inh	Cruzain inh Det	StopGo reporter	SARS PLP yeast
Cc1cc(C)cc(OCC(=O)OCCN2C(=O)c3ccccc3C2=O)c1	2%	7%	-14%	?	-17%	-6.9%	3%	0%
CSCC[C@H](NC(=O)OC(C)(C)C)C(=O)NCC1CCC(C(=O)O)CC1 (stereo not given in full)	nt	nt	-2%	nt	5%	nt	27%	1%
COc1ccc(C(=O)Nc2ccnc(-c3cccnc3)n2)cc1	nt	nt	-3%	nt	-2%	nt	6%	0%
COC(=O)CSc1nc(N)c(C#N)c(-c2ccc(O)cc2)c1C#N	nt	nt	8%	4%	-3%	nt	4µM*	4%
CCN(CC)CCn1c2ccccc2c2cnc(N)c(C#N)c21	10%	?	-8%	11µM*	-8%	-6.4%	-19%	5%
Cc1ccc(S(=O)(=O)N2CCOCC2)cc1NC(=O)COC(=O)c1cccnc1Cl	nt	12%	-8%	16%[46.1 µM]	-3%	nt	-5%	-1%
COc1ccc(N2CCN(S(=O)(=O)CCNC(=O)C3CC3)CC2)cc1	nt	-13%	-6%	16%[46.1 µM]	nt	nt	-4%	-5%
Cc1cccc(C)c1NC1=NC2(CCCCC2)N=C(N)N1	4%	9%	14%[3.69 µM]	9%	-3%	2.5%	9%	7%
CCOC(=O)c1[nH]cnc1C(=O)Nc1cccc(Cl)c1	nt	0%[46.1 µM]	2%	13%[46.1 µM]	1%	nt	-5%	0%
COc1ccc(C(=O)NCC(=O)OCC(=O)c2ccc3c(c2)NC(=O)CO3)cc1	nt	13%	13%	-12%[46.1 µM]	nt	nt	8%	3%
CCCN(CCC)S(=O)(=O)c1ccc(C(=O)N2CCN(C)CC2)cc1	nt	?	5%	0%	-7%	nt	-2%	-9%
C/C(=N\OCC(=O)N/N=C/c1ccccc1)c1cccs1	-10%	25%	2%	13%	-16%	-1.3%	nt	-3%
COC(=O)Cc1cc(=O)n(-c2ccccc2)[nH]1	5%	14%	7%	9%	8.9µM*	3.8%	nt	3%
CCOc1ccc(C(=O)n2cc(C(=O)OC)c3ccccc32)cc1	nt	2%	2%	?	-2%	nt	-4%	-8%
Cc1ccc2nc(SCC(=O)Nc3c(C)n(C)n(-c4ccccc4)c3=O)[nH]c2c1	-20%	1%	3%	-16%	-5%	1.8%	2%	-1%
CCN(CC)CCSc1nc(O)c(-c2ccccc2)c(=O)[nH]1	7%	6%	12%	4%	-9%	1.4%	10%	-9%
COc1cc(Nc2ncc3c(n2)CCN(Cc2cc(F)cc(F)c2)C3)cc(OC)c1	-24%	?	nt	nt	nt	-4.1%	-25%	nt
Cc1ccc(NC(=O)CSc2nc3sc(C)cc3c(=O)n2C)cc1	nt	?	7%	38%[46.1 µM]	-38%	nt	51%[activator]	-1%
CCCOc1ccc(CNC(=O)C(CC)n2nc(C)c3sc4ccccc4c3c2=O)cc1 (stereo not given)	-24%	13%[46.1 µM]	nt	?	nt	-6.5%	-20%	nt
O=C(/C=C/Nc1ccccc1Oc1ccccc1)c1ccco1	nt	?	1%	?	-6%	nt	-13%	13%
COc1ccccc1C(CC(=O)O)c1ccc2c(c1)OCO2 (stereo not given)	nt	nt	17%	nt	10%	nt	3%	1%
Cc1cc(C(=O)NCc2ccco2)cs1	1%	10%	-15%	13%	3%	1.9%	20%	-2%
CC1=NN(c2cccc(F)c2)C(=O)/C1=C/c1ccc(N(C)C)cc1	nt	15%	0%	?	1%	nt	39%[activator]	-6%
Cc1ccc(S(=O)(=O)NCc2ccccc2)cc1C(=O)NCC1CCCO1 (stereo not given)	nt	1%	-4%	-12%	nt	nt	42%[activator]	-1%
Cc1ccc(Nc2nnc(SC(C)C(=O)NCC3CCCO3)s2)cc1 (stereo not given)	nt	1%	3%	-32%	nt	nt	-5%	nt
CCOC(=O)C1CCN(C(=O)CCc2ccc(S(=O)(=O)NC(C)C)cc2)CC1	nt	nt	4%	nt	-3%	nt	-22%	1%
Cc1ccc(-c2csc(=Nc3ccccc3)n2CCCO)cc1	-1%	-8%[46.1 µM]	nt	-4%[46.1 µM]	nt	-3.0%	32µM*	nt
COCCCn1cnc2c(c1=O)c1nc3ccccc3nc1n2-c1ccc(C)cc1	?	-14%	-3%	?	1%	0.5%	0%	12%
COc1cc2c(cc1OC)C(COc1ccccc1OC)N(C(=O)c1ccco1)CC2 (stereo not given)	nt	-1%	-11%	-8%	nt	nt	-1%	-1%
O=C(N/N=C/c1ccncc1)c1cccc([N+](=O)[O-])c1	8%	0%	nt	-3%	18%	4.5%	nt	33%
Cc1ccc(CNS(=O)(=O)c2ccc(C(C)(C)C)cc2)n1C	-4%	?	-8%	?	-39%	-3.6%	8%	1%
CS(=O)(=O)c1ccc(Cl)c(NC(=O)COC(=O)c2ncc(Cl)c(Cl)c2Cl)c1	nt	19%	7%	-17%	nt	nt	-14%	nt
C=CCn1c(SCc2nc3ccccc3[nH]2)nnc1-c1cccc(OC)c1	-5%	1%	-5%	-8%	-5%	-2.2%	?	0%
CC1(C)CCC(=O)c2ccccc21	nt	1%	-7%	1%	nt	nt	-8%	nt
CC(C)(C)OC(=O)NNC(=S)NCc1ccc(Cl)cc1	-3%	-13%	3%	-6%	3%	2.2%	-15%	7%
CC(=O)OC(C)(C)C1Cc2cc3ccc(=O)oc3cc2O1 (stereo not given)	-11%	nt	-7%	nt	-1%	6.4%	18%&33%	2%
Cc1[nH]c(=O)[nH]c(=O)c1S(=O)(=O)N1CCCC(C(=O)NCc2ccc3c(c2)OCO3)C1 (stereo not given)	nt	-1%	-13%	-3%[46.1 µM]	nt	nt	5%	-6%
c1ccc(C(Nc2cccnc2)c2ccccc2)cc1	nt	4%[46.1 µM]	-3%	-2%	nt	nt	-10%	nt
COc1ccc(CCNC(=O)Cn2c(=O)c3cccn3c3ccc(F)cc32)cc1OC	-7%	-5%[46.1 µM]	nt	nt	nt	-2.9%	-20%	nt
Cn1c(=O)[nH]c(=O)c2c1nc(Br)n2Cc1ccccc1Cl	0%	8%	-2%	?	1%	2.3%	?	-3%
CCN(Cc1ccncc1)C(=O)C1CCC(=O)N(Cc2ccc(Cl)cc2)C1 (stereo not given)	nt	1%	8%	8%	2%	nt	-5%	-1%
Cc1c(O)ccc2c3c(c(=O)oc12)CCC(C)C3 (stereo not given)	3%	-30%	-25%	0%[46.1 µM]	-87%	-0.3%	?	-6%
C=CCN(C(=O)CCC(=O)O)C1CC(=O)N(c2ccc(OCCC)cc2)C1=O (stereo not given)	-7%	-1%	-2%	-1%	-2%[9.22 µM]	-5.3%	-3%	-2%
CCOc1ccc(C)cc1S(=O)(=O)n1ccnc1	11%	0%	-2%	?	4%	8.6%	-5%	-1%
CCN(CC)CCN1C(=O)C2C(C(=O)Nc3ccc(Br)cc3)C3C=CC2(O3)C1C(=O)NC1CCCCC1 (stereo not given)	nt	-1%[46.1 µM]	11%	?	-10%	nt	-8%	7%
O=C(Nc1c(Cl)cc(Cl)cc1-c1nc2ccccc2s1)c1ccc(Br)o1	-89%	2%	8%	?	27%	?	-11%	11%
O=C(NCCSc1c(-c2ccccc2)[nH]c2ccccc12)c1cc2ccccc2oc1=O	?	?	3%	13%	11µM*	-2.8%	?	-9%
Cc1cc(C)c2nc(-c3ccccn3)cc(C(=O)Nc3ccc(S(=O)(=O)Nc4cc(C)on4)cc3)c2c1	-19%	-13%	12%	-9%	13%	-12%	?	-6%
CNC(=O)c1ccc(NC(=O)C2CCN(c3ncnc4sc(C)c(C)c34)CC2)cc1	nt	14%	19%	-6%	-23%	nt	0%	0%
COc1ccc(-c2cc(-c3ccc(OC)c(OC)c3)n[nH]2)c(O)c1	13%	-18%	-11%	5%	-58%	-10%	-1%	?
O=C(NCCC1=CCCCC1)C1CCN(S(=O)(=O)N2CCOCC2)CC1	-2%	4%	10%	-1%	-5%	2.1%	-23%	2%
CC1CCC(NC(=O)N(CCCl)N=O)CC1 (stereo not given)	-4%	nt	-15%	nt	nt	2.0%	29%&1%	nt
COc1ccc(CN2CCc3c(c(=O)n4ncc(C(=O)N5CCN(c6ccccc6F)CC5)c4n3C)C2)cc1	?	-6%[46.1 µM]	nt	nt	nt	-6.2%	?	nt
Cc1ccc(N2CCN(C(=O)c3ccccc3NC(=O)C3CC=CCC3C(=O)O)CC2)cc1 (stereo not given)	4%	-5%	-12%	10%	?	-2.6%	9%	14%
COc1cccc(C2SCC(=O)N2c2ccc(C)cc2)c1OC (stereo not given)	6%	0%	-14%	-6%	-5%	-4.3%	-25%	?
C/C(CC(=O)Nc1ccc2c(c1)OCO2)=N\NC(=O)OC(C)(C)C	nt	12%	14%	?	nt	nt	-9%	0%
Cc1ccccc1CN1c2ccccc2-c2nc(SCC(=O)Nc3cc(F)ccc3F)ncc2S1(=O)=O	-2%	-28%[46.1 µM]	nt	nt	nt	0.6%	0%	nt
CN1C(=O)/C(=C2\SC(=S)N(NC(=O)c3cccnc3)C2=O)c2ccccc21	nt	nt	0%	nt	-32%	nt	-4%	-2%
Cc1cccc2sc(NC(=O)c3cccc(S(=O)(=O)N4CCc5ccccc54)c3)nc12	10µM*	0%	-6%	-11%	10%	-1.2%	?	10%
Cc1c(C=O)c2ccccc2n1CC(=O)NCc1ccccc1	nt	-2%	1%	-15%[46.1 µM]	nt	nt	-23%	2%

Continued.
SMILES	Cruzain inh noDet	LASV entry inh	RE007 growth inh	Marburg entry inh	NS1 inh	Cruzain inh Det	StopGo reporter	SARS PLP yeast
COc1ccc(C(=O)N/N=C/c2ccc(OC(=O)c3ccccc3)cc2)cc1	?	27%	12%	0%	-39%	0.2%	22%	1%
COc1ccc(/C=C2\CCCC3C2=NC(=S)NC3c2ccc(OC)cc2)cc1 (stereo not given)	25µM*	?	nt	?	?	-5.0%	-7%	?
CCOC(=O)Cc1csc(NC(=O)c2cc(=O)c3ccccc3o2)n1	nt	-1%	-13%	13%	-6%	nt	-10%	-1%
Cc1nc(SCC(=O)Nc2cc(C(N)=O)cc(C(N)=O)c2)c2c(C)c(C)sc2n1	nt	nt	5%	nt	-6%	nt	3%	6%
CS(=O)(=O)N(CC(=O)Nc1ccc(F)cc1F)C1CCCCC1	nt	7%[46.1 µM]	-15%	21%[46.1 µM]	-1%	nt	17%	1%

Screens (PubChem)
